# Biofilm kill mix = mixture kills Candida albicans biofilm cells; C. albicans biofilm persisters + clotrimazole, fluorescence viability; primary screen in compound mixtures of four per well; inhibition, % at 7.6 µM; actives 0.02% (n = 120,000);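 active means inhibition above 30.3% in the primary screen of four-compound pools, then above 30% when the compound was retested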;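 further: compounds exposed to preformed 24 h biofilms for 48 h; the number belongs to the whole pool; some results filed as inactive read as strong as hits; inactives centre near 12; 0% = biofilm with clotrimazole alone and 100% = kill control; retested singly at about 60 µM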
#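 Probe or stimulus – Clotrimazole 50 µg/mL co-treatment · System – C. albicans biofilms · Schedule – 24 h biofilm formation, then 48 h compound exposure, 37 °C · Evaluation – percent inhibition of biofilm viability · Technique – 2-h Alamar Blue fluorescence, 535/590 nm excitation/emission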
# Active calls of the source: *. Not all compounds are listed; rates above refer to the full screens.
Molecule | Biofilm kill mix
COc1cc2c(cc1OC)C(c1ccccc1N)=NCC2 | 16
O=C(CSc1nc2ccc(Cl)cc2[nH]1)NCCc1ccc(Cl)cc1 | 12
NC(=O)C1CCN(C(=O)CCSc2ccc(Cl)cc2)CC1 | 14
Cc1cc(-c2ccccc2)nc2oc(C(=O)NN)c(N)c12 | 20
COC(=O)Cc1ccc(N(Cc2ccccc2F)S(=O)(=O)c2ccc(Cl)cc2)cc1 | 10
CCN(CC)c1c([N+](=O)[O-])c(=O)n(C)c2ccccc12 | 14
COC(=O)NNC(=O)COc1ccc2ccccc2c1Br | 10
C/C(=N\Nc1cccc(C(F)(F)F)c1)c1ccc(O)cc1 | 9
Nc1ccccc1C(=O)N/N=C1\C2CN3CCN(C2)CC1(c1ccccc1)C3 | 14
COc1cccc(CNC(C)C(=O)Nc2ccc3c(c2)OCCO3)c1 (stereo unspecified) | 19

# The results go on.
Molecule | Biofilm kill mix
O=S(=O)(N/N=C/c1cccnc1)c1ccc(Cl)c(Cl)c1 | 15
COc1cccc2cc(-c3nnc(-c4ccccc4)o3)c(=O)oc12 | 7
COc1cc(-n2c(=O)c3ccccc3n(Cc3cccc(F)c3)c2=O)cc(OC)c1OC | 20
CCCCN(Cc1cc2cc(C)ccc2[nH]c1=O)C(=O)c1ccccn1 | 35
O=C(Nc1nc(=O)n(C(=O)c2cccc(C(F)(F)F)c2)s1)c1ccccc1 | 14
Cc1nc2ccc(NC(=O)/C=C/C(=O)O)cc2nc1C | -4
O=[N+]([O-])c1cnn(-c2nc(-c3cccs3)cc(C(F)(F)F)n2)c1 | 14
Cc1nc(NC(=O)c2cccs2)ccc1Br | 5
Cc1ccc(C)c(NC(=S)N(Cc2ccc(Cl)cc2)Cc2ccc(C(=O)O)cc2)c1 | 12
C=CCn1c(C)cc(C(=O)CN2NS(=O)(=O)c3ccccc3C2=O)c1C | 7

# By substructure, the entries above with bromine
Molecule | Biofilm kill mix
COC(=O)NNC(=O)COc1ccc2ccccc2c1Br | 10
Cc1nc(NC(=O)c2cccs2)ccc1Br | 5

# (more compounds)
Molecule | Biofilm kill mix
C=CCN1CC2(c3ccccc3)CN(CC=C)CC(c3ccccc3)(C1)C2=O | -3
O=C(O)c1cccc2c1C(=O)c1ccccc1-2 | 12
Cc1[nH]c2ccccc2c1C1=NNC(=Nc2ccc(F)cc2)SC1 | 14
Cc1c(Cc2ccccc2)c(=O)oc2cc(OCc3ccc(C(=O)O)cc3)ccc12 | 12
Cc1ccc(/C=N/NC(=O)CNC(=O)c2ccc(S(=O)(=O)N(C)C)cc2)o1 | 8
CC(C)N1CCC(N2CCN(Cc3ccc(Oc4ncccn4)cc3)CC2CCO)CC1 (stereo unspecified) | 9
Cc1cc(C(=O)N/N=C/c2ccc(O)c(O)c2O)c(C)n1-c1ccccc1 | 7
Cc1cc([N+](=O)[O-])nn1Cc1ccc(C(=O)N/N=C/c2ccccc2)cc1 | 13
Cc1ccc(-c2nc3cccnc3s2)cc1NC(=O)C1c2ccccc2Oc2ccccc21 | 12
CC(C)NC(=S)Nc1ccc2cn[nH]c2c1 | 18

# The closing 7 compounds of the part above are carried over, then new ones follow.
Molecule | Biofilm kill mix
Cc1c(Cc2ccccc2)c(=O)oc2cc(OCc3ccc(C(=O)O)cc3)ccc12 | 12
Cc1ccc(/C=N/NC(=O)CNC(=O)c2ccc(S(=O)(=O)N(C)C)cc2)o1 | 8
CC(C)N1CCC(N2CCN(Cc3ccc(Oc4ncccn4)cc3)CC2CCO)CC1 (stereo unspecified) | 9
Cc1cc(C(=O)N/N=C/c2ccc(O)c(O)c2O)c(C)n1-c1ccccc1 | 7
Cc1cc([N+](=O)[O-])nn1Cc1ccc(C(=O)N/N=C/c2ccccc2)cc1 | 13
Cc1ccc(-c2nc3cccnc3s2)cc1NC(=O)C1c2ccccc2Oc2ccccc21 | 12
CC(C)NC(=S)Nc1ccc2cn[nH]c2c1 | 18
CN1Cc2c(N3CCOCC3)nc(SCCC#N)c(C#N)c2CC1(C)C | 12
CC(=O)NNC(=O)CCn1nnc(-c2ccc(Cl)cc2)n1 | 18
c1ccc(CC2CCCNC2)cc1 (stereo unspecified) | -4
CCOC(=O)C1CCN(C(=S)Nc2ccc(C)cc2)CC1 | 10
Cc1ccc(C(=O)Nc2cccc(-c3nc4ncccc4o3)c2)cc1 | 21
CSc1ccc(Cn2nnc(C(=O)NCCc3ccc(Cl)cc3)c2N)cc1 | 18
CCN(CC)c1ccc(/C=N\NC(=O)c2cccc3cc[nH]c23)cc1 | 22
Nc1nc(-c2ccccc2)c(-c2ccccc2)o1 | 23
COCCCNc1nc2c(c(=O)[nH]c(=O)n2C)n1CC(O)COc1ccccc1 (stereo unspecified) | 7
COc1ccc(CC(=O)O/N=C(\N)Cc2cccc3ccccc23)cc1 | 26

# Continued.
Molecule | Biofilm kill mix
Cc1cc2c(cc1C)NC1=C(N2)OC(c2cccc(O)c2)C1=O (stereo unspecified) | 7
COCCCNC(=O)CC1C(=O)N(Cc2ccccc2)C(C)c2nc3ccccc3n21 (stereo unspecified) | 17
O=C(COc1ccc([N+](=O)[O-])cc1)NCc1ccncc1 | 7
Cc1ccc(C(=O)N2CCN(c3ncnc4c(-c5ccccc5)nsc34)CC2)cc1 | 29
Cc1ccc(C)c(NC(=S)Nc2ccc(S(=O)(=O)Nc3ncccn3)cc2)c1 | 16
CC(=O)N[C@@H](Cc1c[nH]c2ccccc12)C(=O)OCC(=O)Nc1ccc(Cl)c(S(=O)(=O)N(C)C)c1 | -14
c1ccc(-c2csc(N3CCSCC3)n2)cc1 | 12
Nc1ccc2c(c1)Oc1ccccc1C=C2 | 7
Cc1cc(C)c2c(N)c(C(=O)NN3CC(=O)N(c4ccccc4)CC3=O)sc2n1 | 17
CCOC(=O)C1CCN(CC(=O)Nc2ccc(OC)c(Cl)c2)CC1 | 11

# The list continues.
Molecule | Biofilm kill mix
Cc1ccc2[nH]c(C(=O)O)c(NC(=O)c3ccccc3[N+](=O)[O-])c2c1 | 15
Cc1cccc(N2CCN(C(=O)c3cc(C)oc3C)CC2C)c1 (stereo unspecified) | 15
CCc1c(C)nc(SCC(=O)N2CCN(c3ccccc3)CC2)[nH]c1=O | 4
CC(=O)Nc1ccc(/C=N/Nc2ccc(C(=O)c3c(C)cc4ccccn34)cc2[N+](=O)[O-])cc1 | -2
Cc1cc(Cl)ccc1N=C1N=C(N)c2ccccc21 | 12
CCOC(=O)C(C)NC(=O)Cn1ncc2c(=O)oc3ccc(C)cc3c21 (stereo unspecified) | 27
CN(C)C(=O)c1cn(-c2ccccc2)nc1-c1cccc([N+](=O)[O-])c1 | 13
CC(=O)c1cccc(NC(=O)C(C)N(C)CC(=O)Nc2ccc(Cl)cc2)c1 (stereo unspecified) | 9
COc1ccc(CC(=O)N2CCc3cc(OC)c(OC)cc3C2O)cc1OC (stereo unspecified) | 12
CC(=O)c1ccc(N=Nc2ccc(N)cc2)cc1 | 13

# More results
Molecule | Biofilm kill mix
Cc1ccc(C(=O)OC2CCCN(C)C2)cc1 (stereo unspecified) | 21
C[C@@H](C(=O)NCC1CC1)[C@H]1C[C@]1(C)[C@H](NC(=O)OCc1ccccc1)c1ccccc1 | 6
O=C(CN1CCCc2ccccc21)N/N=C/c1ccccc1 | 15
O=[N+]([O-])c1cc(Cl)ccc1-c1nc(-c2ccccc2)no1 | 8
COc1cc2cc(CN(CCCN3CCOCC3)C(=O)Nc3ccc(F)cc3)c(=O)[nH]c2cc1OC | 4
O=[N+]([O-])c1ccc(N/N=C/c2ccc(OCc3cccc4ccccc34)cc2)nc1 | 11
C#CCn1c(O)c(N=NC(=O)C(O)c2ccccc2)c2ccccc21 (stereo unspecified) | 14
O=C(O)COc1c(-c2ccco2)oc2ccccc2c1=O | 11
C/C(Cn1nnc([N+](=O)[O-])n1)=N\NC(=O)c1ccncc1 | 10
Cc1ccc2nsnc2c1NC(=O)c1ccc([N+](=O)[O-])cc1 | 43

# Going on with the list:
Molecule | Biofilm kill mix
O=C(NCCc1ccccc1)C1CCN(C(=O)NCc2ccccc2)CC1 | 9
CC(C)CC(=O)NS(=O)(=O)c1ccc(N)cc1 | 10
COc1ccc(NC(=O)Cn2nc(C(F)(F)F)c3c2CCCC3)cc1OC | -5
COc1cc(/C=N/NC(=O)CCN2CCN(Cc3ccccc3)CC2)cc(OC)c1OC | -10
Cn1c(=O)c(=O)n(C)c2cc(S(=O)(=O)N3CC(=O)N(CCc4ccccc4)C(=O)C3)ccc21 | 0
CCOc1ccc(/C=C/C(=O)C(C(N)=O)=C2SCCS2)cc1 | 11
O=C(c1cc2c(s1)-c1ccccc1S(=O)(=O)C2)N1CCCC1 | 12
CCC(CO)[n+]1c(C)cc(/C=C2\Sc3ccccc3N2Cc2ccccc2)cc1C (stereo unspecified) | 35*
C[C@H](NC(N)=O)C(=O)Nc1ccc2c(c1)OCO2 | 15
O=C(CSc1nnc(Nc2ccccc2)s1)Nc1cccnc1Cl | 13

# The list goes on:
Molecule | Biofilm kill mix
O=C(O)/C=C/C(=O)Nc1ccc(OC(F)F)cc1 | 21
CCOC(=O)c1c(NC(=S)N2CCN(C)CC2)sc2c1CCN(C(=O)OCC)C2 | 20
CS(=O)(=O)NCCOc1ccc(S(=O)(=O)NCCOc2ccccc2)cc1 | 8
O=C(N/N=C/c1cn(-c2ccccc2)nc1-c1cccnc1)c1cccnc1 | 19
CCOc1ccc(NC(=S)Nc2ccccc2C2(C)CC2)cc1 | 32
Cc1ccc(C)c(C(=O)OCC(=O)Nc2cccc(S(=O)(=O)NC3=NCCCCC3)c2)c1 | -7
O=C(/C=C/c1ccc2c(c1)OCO2)NCc1ccco1 | 9
COc1ccc(NC(=S)NNC(=O)CCn2cc([N+](=O)[O-])cn2)cc1 | 17
CC(C)c1ccccc1NC(=O)c1ccc(CN(c2ccccc2)S(=O)(=O)c2ccccc2)cc1 | 7
COc1ccc(C(=O)C2CCCN(C(=O)CCc3ccccn3)C2)c(C)c1 (stereo unspecified) | 5

# An excerpt from above in order of length of the SMILES, smallest number first.
Molecule | Biofilm kill mix
COc1cc2c(cc1OC)C(c1ccccc1N)=NCC2 | 16
CC(=O)NNC(=O)CCn1nnc(-c2ccc(Cl)cc2)n1 | 18
COc1cccc(CNC(C)C(=O)Nc2ccc3c(c2)OCCO3)c1 (stereo unspecified) | 19
O=[N+]([O-])c1ccc(N/N=C/c2ccc(OCc3cccc4ccccc34)cc2)nc1 | 11

# Next results:
Molecule | Biofilm kill mix
O=C(NNC1=C(C(=O)C(F)(F)F)CCC1)c1cccnc1 | 16
c1cc(Nc2cccc3nccnc23)c2nccnc2c1 | 33
Cc1cc(-n2cnc(-c3cn(C)nc3C)n2)no1 | 7
CCOCCCNC(=S)NCCCNc1nc2c(C)c(C)ccc2cc1C#N | 4
Cc1csc(NC(=O)c2ccco2)c1C(=O)c1ccccc1 | 13
O=C(Cc1ccc([N+](=O)[O-])cc1)Nc1ccc2c(c1)OCO2 | 8
CCOC(=O)N1CCN(S(=O)(=O)c2ccc(C)c([N+](=O)[O-])c2)CC1 | 9
Cc1nc2ccccc2nc1CN1CCC(CO)(CC2CCCCO2)CC1 (stereo unspecified) | -5
O=C(O)c1ccccc1C(=O)Nc1ccc(-n2ccc(C(F)(F)F)n2)cc1 | 7
CC[n+]1ccc(C)c2cc(SC(F)(F)F)ccc21 | 1

# The results go on.
Molecule | Biofilm kill mix
Cc1cc2ccccn2c1C(=O)c1cccc([N+](=O)[O-])c1 | 18
COc1ccc(NS(=O)(=O)c2ccc(N3CCCC3=O)cc2)cn1 | 15
CC1(C)C(CO)=CC(=O)C2=C1SCC(=O)N2 | 9
C=CCC1C=CCC(CC=C)N1C(=O)c1ccccc1[N+](=O)[O-] (stereo unspecified) | 4
Cc1ccc(OCC(=O)Nc2ccc(N3CCOCC3)cc2)c([N+](=O)[O-])n1 | 17
CCCCOCC(O)CCc1n[nH]c(=S)n1-c1ccccc1 (stereo unspecified) | 17
COc1ccc([C@@H]2C[C@@H](c3ccccc3)Oc3cc(C)cc(C)c32)cc1 | 14
Cc1cccc2c1-c1sc(C(=O)N3CCc4ccccc4C3)cc1CO2 | 8
O=C(CCC(=O)OCC(F)(F)C(F)F)Nc1ccc(F)cc1F | 5
COc1cccc(-n2nnc3c(=O)n(CC(=O)Nc4ccc(C)cc4)cnc32)c1 | 9

# Remaining list, next part
Molecule | Biofilm kill mix
COC(=O)c1ccc(NC(=S)NCCCN2CCCC2=O)cc1 | 12
N#CC(C#N)=Cc1cc2ccccc2nc1N1CCCCC1 | 4
O=C(Oc1cccnc1)c1ccc([N+](=O)[O-])cc1 | 11
CCCOc1ccc2nc(C)c(CCC)c(SC(=N)N)c2c1 | 25
CCOC(=O)CN(C(=O)c1ccccc1[N+](=O)[O-])C(C)(C)C | 16
CCOC(=O)c1nn(-c2ccccc2)c(=O)c2c(NC(C)=O)scc12 | 25
Cc1ccccc1-n1c(C)cc(/C=C(\C#N)C(=O)NCC2CCCO2)c1C (stereo unspecified) | 3
Cc1cc(=O)[nH]c(N/N=C/c2c(C)nn(-c3ccccc3)c2C)n1 | -1
Oc1ccc(/C=N/Nc2ccccc2)cc1 | 23
Cc1scc(-c2n[nH]c(=S)n2Cc2ccccc2)c1C | 6

# Other compounds.
Molecule | Biofilm kill mix
NN=C1c2cc([N+](=O)[O-])ccc2-c2ccc([N+](=O)[O-])cc21 | 6
CCOC(=O)C1C(=O)OC(C)(C)C1C(CC)C(=O)c1ccccc1 (stereo unspecified) | 24
NS(=O)(=O)c1ccc(CCNC(=O)CCCCCNc2nc(=S)[nH]c3ccccc23)cc1 | 17
CC1(C)Cc2nc(NC3CCCCC3)c(C#N)cc2CO1 | 20
CCOC(=O)C1=C(C)NC(=S)N(C(C)=O)C1c1ccc(OC)c(OC)c1 (stereo unspecified) | -7
COc1ccccc1CNc1ccccc1F | 30
COc1ccc(/C=N/NC(=O)CNC(=O)c2ccc(S(=O)(=O)N3CCOCC3)cc2)cc1OC | 8
O=C(COC(=O)CNC(=O)c1ccccc1)Nc1ccc(S(=O)(=O)N2CCCC2)cc1 | 10

# Bioassay records deposited in PubChem BioAssay by PCMD.
